# Screening results: PubChem, National Center for Advancing Translational Sciences (NCATS)
# PINK1 expr mod – modulators of PINK1 expression; PINK1 immunofluorescence, high-content cytometry, 24 h; 0.2% of 410,000 active; Potency, µM (doses to about 76.6 µM), for inactives: at the highest dose activation (PINK1 increase), most hits filed as activators; AID 624263; active = well fitted activation curve with a large enough effect; inconclusive = small, poorly fitted or top-dose-only effect; inactive = flat fitted curve, though single readings scatter; cell line not stated here;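 note: potency is the fitted concentration of half-maximal effect; % of control where 0% means no effect; nearly all actives have a fitted effect of over 65% in size; a mitochondrial uncoupler was the plate control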
#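 Stable cell line, 250 cells/well, 12 h attachment; compounds pinned at 5 concentrations, 24 h; CCCP control. Fixed with nuclear dye, primary antibodies 12 h at 10 degrees C, secondary plus cell stain; laser-scanning cytometer read.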
# Six1-Eya2 inh – Six1/Eya2 interaction inhibition | Q15475+O00167 | AlphaScreen GST-Six1/His-Eya2 binding, biochemical; active compounds read low; control for the full effect not named in the record | activity change, % (no concentration beside the values) | AID 651725 | 0.56% of 360,000 active; in the data active = activity change below about -65%; inconclusive = about -30% to -65%; inactive = above about -30%; note: % is set by controls: 0 for no effect and ±100 for the full control effect
# Target sequence (O00167 whole entry, looked up): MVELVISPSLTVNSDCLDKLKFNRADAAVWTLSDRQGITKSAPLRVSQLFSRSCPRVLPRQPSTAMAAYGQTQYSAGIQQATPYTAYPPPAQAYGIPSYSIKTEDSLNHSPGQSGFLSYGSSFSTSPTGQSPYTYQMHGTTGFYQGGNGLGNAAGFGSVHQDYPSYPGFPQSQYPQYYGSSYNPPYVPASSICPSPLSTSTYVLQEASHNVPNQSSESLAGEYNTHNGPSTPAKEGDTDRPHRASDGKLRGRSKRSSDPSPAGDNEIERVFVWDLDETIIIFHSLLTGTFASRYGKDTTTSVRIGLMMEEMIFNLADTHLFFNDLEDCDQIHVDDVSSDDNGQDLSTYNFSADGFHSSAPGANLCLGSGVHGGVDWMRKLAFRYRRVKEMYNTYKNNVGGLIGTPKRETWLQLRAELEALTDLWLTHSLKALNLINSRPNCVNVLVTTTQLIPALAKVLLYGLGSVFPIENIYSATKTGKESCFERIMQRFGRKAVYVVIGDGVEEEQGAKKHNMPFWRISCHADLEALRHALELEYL
# Target sequence (Q15475 whole entry, looked up): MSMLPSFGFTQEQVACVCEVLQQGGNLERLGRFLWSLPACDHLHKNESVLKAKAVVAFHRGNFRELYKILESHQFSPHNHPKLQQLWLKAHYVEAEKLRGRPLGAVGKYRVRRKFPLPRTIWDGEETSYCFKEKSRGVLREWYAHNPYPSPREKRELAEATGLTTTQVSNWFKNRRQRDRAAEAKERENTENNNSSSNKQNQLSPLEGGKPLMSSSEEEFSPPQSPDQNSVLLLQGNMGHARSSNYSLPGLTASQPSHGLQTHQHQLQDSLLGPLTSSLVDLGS
#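 Six1/Eya2 binding was read as AlphaScreen signal after compounds were pinned into GST-Six1 plus His-tagged Eya2 (5X stock 250/500 nM) in pH 8.0 Tris/NaCl/TCEP buffer, beads added, then incubated 1 h, 37 C, dark.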
# D2 ag – agonists of human D2 dopamine receptor (beta-arrestin); P14416; AID 624465; DiscoveRx PathHunter D2 beta-arrestin, luminescence, 90 min; 100% = 57 uM dopamine signal; activation, % (test concentration not listed); 0.084% of 360,000 active; in the data active = activation above about 40%; inconclusive = about 15% to 40%; inactive = below about 15%; note: compound concentration not given in the record; the text of the record calls up to 30% inactive
#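 Agonist mode: compounds alone added to overnight-plated D2 PathHunter cells for 90 min at 37 C, with 57 uM final dopamine (EC100) defining full response. Beta-arrestin recruitment detected by chemiluminescent reagent, read after 1 h at ambient temperature.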
# TRPML1 ag – agonists of human TRPML1 channel. Q9GZU1. TRPML1-expressing cells, Ca2+ dye fluorescence, FDSS; host cell line not named in the record; reference of the full effect not given here. activation, % (concentration not given with the values). 0.12% of 410,000 active; in the data active = activation above about 50%; inconclusive = about 30% to 50%; inactive = below about 30%; note: 0% is about no effect; the text of the record puts the active cut at 80%
#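 Kinetic FDSS Ca2+ read in Tet-induced TRPML1-DL cells (ABD Ca8 dye plus quencher, 45-90 min RT loading): baseline, then compound, then 110 s agonist window; EC80 agonist 54-4 at 4uM final added afterwards for a 110 s antagonist window.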
# D2 PAM – potentiates the human D2 dopamine receptor allosterically. P14416. 0.23% of 360,000 active. potentiation, % (concentration not given with the values). DiscoveRx D2 beta-arrestin cells, luminescence, 90 min; 100% = 57 uM dopamine signal; active = potentiation of 50% or more; inconclusive = 30% to 50%; inactive = 30% or less;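 note: compound concentration not given in the record; tested on top of an EC20 dose of dopamine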
#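 PathHunter D2 cells, attached overnight at 37 deg C, received compound in DMSO plus dopamine at EC20 (50 nM final) for 90 min at 37 deg C. Beta-arrestin recruitment was read as luminescence after 1 h with detection reagent at ambient temperature.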
# CtBP-E1A inh – inhibitors of CtBP/E1A interaction. AlphaScreen GST-E1A/His-CtBP binding, 1536-well; active compounds read low; control for the full effect not named in the record. activity change, % (test concentration not listed). 0.49% of 340,000 active. AID 651724; in the data active means activity change below about -65%; inconclusive means about -30% to -65%; inactive means above about -30%; note: % is set by controls: 0 for no effect and ±100 for the full control effect
#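 Protein mix (5X: 125 nM each GST-E1A, His-CtBP) was incubated with pinned compound 2 h at 37 deg C in dark, in 50 mM Tris pH 8.0 buffer with 300 mM NaCl. Glutathione donor and nickel acceptor beads followed; AlphaScreen signal read after 1 h.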
# * = called active by the depositor; ? = inconclusive; / = no result given; & = joins results of further samples; [ ] = dose if it differs, or a comment.
SMILES,PINK1 expr mod,Six1-Eya2 inh,D2 ag,TRPML1 ag,D2 PAM,CtBP-E1A inh
CC(O)[C@H]1CC[C@H]2[C@@H]3CC[C@H]4C[C@@H](O)CC[C@]4(C)[C@H]3/C(=N/O)C[C@]12C (stereo not given in full),-0.2%,2.6,-2.1,1.8,-45.4,-1.1
CCN[C@H]1CN(CCCOC)S(=O)(=O)c2sc(S(N)(=O)=O)cc21,0.2%,-0.3,-1.9,-0.3,3.3,5.0
Cn1nc(-c2ccc(OCC(N)=O)cc2)c2ccccc2c1=O,/,-1.8,1.2,0.0,-0.1,-2.4
CCCCOc1ccccc1-c1ccccc1CN1[C@@H](C(C)C)COCCS1(=O)=O,8.8%,-0.3,-0.3,2.4,/,1.2
O=C(CN1C(=O)CC(c2ccccc2)S(=O)(=O)c2ccccc21)NC1CCCC1 (stereo not given),-0.6%,-2.2,-2.8,0.6,5.7,0.0
Cc1ccc(-c2nc(CS(=O)CC(=O)NCCC(C)C)c(C)o2)cc1 (stereo not given),-0.7%,7.0,0.8,0.7,-3.2,-7.7
CC(C(=O)N1CCOCC1)c1ccc([N+](=O)[O-])cc1 (stereo not given),0.2%,5.7,-9.3,0.0,-11.8,/
Cn1c(SCC(=O)NCC2CCCO2)nc2c(c1=O)SCC2 (stereo not given),-2.7%,-1.7,-2.6,0.4,20.6,5.7
CCN(CC)c1ccc(NC(=O)c2cncc(Br)c2)cc1,0.5%,-28.9,-0.4,0.2,-16.2,?
O=C(CSc1nc(-c2ccc(Cl)cc2)[nH]c(=O)n1)Nc1cccc(Cl)c1,-1.6%,3.6,-4.5,2.4,-5.5,-21.7
CCOc1cc(/C=C2\NC(=O)NC2=O)cc([N+](=O)[O-])c1O,0.1%,?,-8.9,/,-18.3,?
CC(C)CN1CCN(Cc2ccc(CN3CCCCC3)s2)CC1CCO (stereo not given),0.7%,8.6,-0.4,-0.1,-11.8,2.1
Cc1ccc(-n2ncc3c(=O)n(CC(=O)N4CCN(c5ccccc5)CC4)cnc32)cc1,10.3%,-2.5,3.9,0.3,-4.0,-5.0
O=S(=O)(c1ccc(-c2ccccc2)cc1)N1CCOCC1,-0.4%&4.7%,4.3,-1.6,-1.0&-0.3,10.2,2.2
CC(NC(=O)C1CCN(C(=O)c2cccs2)CC1)c1ccc(S(N)(=O)=O)cc1 (stereo not given),-1.0%,0.5,5.2,-0.7,-7.7,1.8
COc1cc(NC(=O)COC(=O)CNC(=O)c2cc(C)cc(C)c2)c(C)cc1[N+](=O)[O-],-0.4%,-3.3,1.1,0.4,-4.7,4.9
O=C(Nc1ccncc1)c1ccccc1Cl,-0.1%,10.3,-1.5,0.9,-12.1,/
C/C(=N\Nc1ccc(C(F)(F)F)cc1[N+](=O)[O-])C(C)C,?,3.9,-4.4,0.7,-0.8,-4.3
Nc1ncnc2c1ccn2[C@H]1CN(Cc2ccc3c(c2)OCO3)C[C@@H](CO)O1,0.5%,7.2,14.2,-0.1,5.4,2.1
Cc1ccc(S(=O)(=O)N2CCOC2CNC(=O)C(=O)NCc2ccccc2)cc1 (stereo not given),1.6%,-2.7,-2.1,2.3,1.0,0.4
O=C(NCC1CCCO1)NC12CC3CC(CC(C3)C1)C2 (stereo not given),-4.4%[38.3 µM],3.5,1.1,0.0,-9.3,4.6
CCOc1ccc(C2OCCC(C)O2)cc1OC (stereo not given),0.4%,-8.2,-1.8,4.0,-4.3,-7.7
C#CC(CCN1CCCCC1)(OC)c1ccccc1 (stereo not given),1.2%,10.2,-0.9,/,-8.4,/
CSCCC(NC(=O)c1ccco1)C(=O)N1CCCC(C(F)(F)F)C1 (stereo not given),-0.9%,8.9,-5.5,-0.2,-5.3,/
CCOc1ccc2nc(NCCCNS(=O)(=O)c3ccc(F)cc3)c(C#N)cc2c1,-2.0%[38.3 µM],41.3,1.7,3.3,-4.7,50.8
SMILES,PINK1 expr mod,Six1-Eya2 inh,D2 ag,TRPML1 ag,D2 PAM,CtBP-E1A inh
C[C@H]1CN([C@@H](C)CO)S(=O)(=O)c2ccc(Br)cc2O[C@@H]1CN(C)Cc1cccc(F)c1,-0.7%,-5.8,-8.2,0.1,-3.6,-3.2
CCN(CC)C(=O)C(C(=O)c1cccc([N+](=O)[O-])c1)n1cc(Cl)ccc1=O (stereo not given),-1.4%,-10.2,-2.7,0.6,-10.4,/
O=C(Cc1cccs1)Nc1cccc(C(=O)Nc2ccco2)c1,1.6%,0.0,-1.1,-0.2,25.2,1.7
CCN(C(=O)N(CC)c1ccccc1)c1ccccc1,2.6%,2.7,4.8,0.8,-0.3,4.4
COc1ccc(C(=O)NNC2=NS(=O)(=O)c3ccccc32)cc1OC,3.8%,4.2,3.3,0.4,-0.8,3.8
O=C(CN1C(=O)S/C(=C\c2ccc(O)c([N+](=O)[O-])c2)C1=O)Nc1ccc(N2CCOCC2)cc1,2.7%,0.0,-1.1,0.9,-7.1,6.0
COc1ccc(NC(=O)c2ccc(OC(F)F)cc2)cc1Cl,0.4%,-0.5,-3.0,2.1,-22.8,-3.1
N#Cc1ccccc1Oc1ccccc1C=O,13.5%,14.0,-0.1,-0.3,-12.3,/
CCCNC(=O)CSc1nc2ccc(OCC)cc2s1,1.5%,21.5,-3.1,0.7,-1.1,/
CCOc1ccc(NC(=O)CC2C(=O)N(c3ccc(OC)cc3)C(=O)N2CCc2cccs2)cc1 (stereo not given),8.4%,-0.9,-1.7,1.1,-9.1,-20.1
CN(CC(=O)NCCCc1ccccc1)Cc1ccc(Br)cc1,-0.8%,9.1,0.4,1.2,-28.5,3.8
O=C(N/N=C/c1ccc[nH]1)c1cccc([N+](=O)[O-])c1,2.5%,3.5,-7.2,-0.4,-6.9,-6.0
COC(=O)C1=C(N)Oc2cc(C)n(Cc3ccccc3)c(=O)c2C1c1ccccc1 (stereo not given),/,-2.9,-0.2,1.5,-12.2,-7.0
CCN(CC)C(=O)Nc1c(C)n(C)n(-c2ccccc2)c1=O,1.7%,-2.2,-2.7,-0.3,2.4,9.8
Cc1ccc(/C=C/c2ccc(=O)n(Cc3ccccc3Cl)n2)cc1,-5.9%,17.8,1.7,3.0,-6.0,-2.0
O=C(Nc1ccc(N2CCOCC2)cc1)c1nc2ccccc2s1,6.3%,-4.7,0.5,0.7,-0.1,7.6
CCOc1cc(NC(=O)c2ccccn2)c(OCC)cc1NC(=O)c1ccccc1,7.2%,-4.6,-5.0,0.9,1.3,12.9
COc1ccc(OC)c(C2C3=C(CCCC3=O)Nc3c2c(=O)n(C)c(=O)n3C)c1 (stereo not given),0.0%,6.4,-0.4,0.2,-11.1,0.3
Cc1ccccc1CS(=O)(=O)c1ccc(C(=O)N2CCC(C)CC2)cc1[N+](=O)[O-],1.3%,12.8,-5.3,-0.2,-8.2,-3.9
CCN(C[C@H]1N[C@@](CC)(C(=O)OC)[C@H]2C(=O)N(Cc3ccccc3)C(=O)[C@@H]12)S(=O)(=O)c1ccc(OC)cc1,-1.3%,1.5,3.0,2.2,-4.8,-0.1
O=C(COc1ccc([N+](=O)[O-])cc1)Nc1cc(C(=O)O)cc(C(=O)O)c1,0.0%,-1.8,-1.8,0.0,-14.3,9.5
CCOc1ccc(C2C(C(N)=O)=C(C)Nc3ncnn32)cc1OC (stereo not given),-1.3%,5.6,-2.0,2.0,-7.9,-2.9
CCOC(=O)N1CCC(Nc2ncnc3c2cnn3-c2ccccc2)CC1,4.5%[38.3 µM],-21.6,-0.8,3.9,15.5,-24.0
CN(/N=C/c1cccnc1)C1=NS(=O)(=O)c2ccccc21,?,?,-3.6,-0.4,-9.2,?
Cc1ccc(C)c(S(=O)(=O)N2CCN(CC(=O)Nc3sccc3C#N)CC2)c1,-0.2%,-16.1,0.0,1.2,-2.3,-18.4
SMILES,PINK1 expr mod,Six1-Eya2 inh,D2 ag,TRPML1 ag,D2 PAM,CtBP-E1A inh
CCOc1ccccc1CNC(=O)c1cn(C)c(=O)c2c1c1ccccc1n2C,6.2%,-2.7,-9.3,0.5,2.2,/
CC1CC(C)CN(CCCNC(=O)COc2cc(=O)n(C)c3ccccc23)C1 (stereo not given),7.7%[38.3 µM],0.2,-2.8,0.0,-14.9,-0.5
CC(=O)N1CCN(C(=O)c2cccc(NS(=O)(=O)c3ccc(Br)cc3)c2)CC1,-2.2%,8.6,-1.7,1.5,-5.0,-0.2
CCn1cc(CCC(=O)NC(C)c2ccccc2)c2ccccc21 (stereo not given),-0.9%,-4.7,-6.5,-0.2,-34.3,-3.2
CN(C)S(=O)(=O)c1cccc(NC(=O)COC(=O)/C=C/c2ccc3c(c2)OCO3)c1,2.2%,-9.8,-3.3,-0.6,-4.9,?
COc1ccc(CCNC(=O)COC(=O)/C=C/c2cccs2)cc1,1.9%,-0.5,-6.8,1.1,1.6,1.3
CC1(C)C(c2ccccc2)=NC(c2ccc(F)cc2)N1O (stereo not given),7.1%[38.3 µM],-1.2,-4.6,0.2,-22.7,1.6
CCOCCCN1C(=O)CN(C2CCCCCC2)C(=O)C1c1ccc(OC)cc1 (stereo not given),-3.5%[38.3 µM],1.8,-4.3,-0.2,-16.0,5.0
COc1ccc(C(C#N)N2CCCCC2)cc1OC (stereo not given),/,-0.2,-0.4,-0.3,4.8,-0.2
CCC(C(=O)OCC(=O)N(C)c1c(N)n(Cc2ccccc2)c(=O)[nH]c1=O)c1ccccc1 (stereo not given),2.3%,-1.9,2.3,-0.4,-1.5,5.8
NS(=O)(=O)c1ccc(N2C(=O)C3CC=CCC3C2=O)cc1 (stereo not given),1.8%,5.1,-3.1,0.9,-1.1,/
O=C(c1ccc(Cl)cc1)N1CCC(=O)N(C(CO)Cc2ccccc2)CC1 (stereo not given),-1.0%,4.5,-2.3,0.1,-14.2,3.1
Cc1occc1C(=O)N/N=C/c1ccc(OCc2ccccc2)cc1,2.2%,-3.6,-0.6,1.7,-13.2,-0.6
CCc1cccc(CC)c1NC(=O)COC(=O)CCc1cc(OC)c(OC)c(OC)c1,2.8%,-3.6,-3.8,0.1,-5.8,0.0
COc1ccc(-c2nnn(CC(=O)N(CCO)C(C(=O)NC3CCCC3)c3ccncc3)n2)cc1 (stereo not given),0.7%,6.5,-5.1,-0.1,-12.0,2.0
O=c1oc2ccccc2n1CCCOc1ccccc1,1.4%,6.0,-0.8,0.7,-4.3,7.9
NNC(=O)c1ccc(CSc2cccc3cccnc23)cc1,2.1%,-25.0,5.4,-0.5,6.4,0.0
COc1cc(CCC(=O)OCC(=O)NC2CCCC(C)C2C)cc(OC)c1OC (stereo not given),0.3%,4.1,-0.2,-1.2,-9.9,7.7
CC(=O)c1ccc(S(=O)(=O)Nc2cccc(-n3cnnn3)c2)cc1,1.5%,-0.1,5.5,-0.6,-3.5,4.4

# Compound profiles, as listed above. Values in the order: PINK1 expr mod, Six1-Eya2 inh, D2 ag, TRPML1 ag, D2 PAM, CtBP-E1A inh
# CC(=O)c1ccc(S(=O)(=O)Nc2cccc(-n3cnnn3)c2)cc1 in the list: 1.5%, -0.1, 5.5, -0.6, -3.5, 4.4
# O=C(CN1C(=O)CC(c2ccccc2)S(=O)(=O)c2ccccc21)NC1CCCC1 (stereo not given) in the list: -0.6%, -2.2, -2.8, 0.6, 5.7, 0.0
# Nc1ncnc2c1ccn2[C@H]1CN(Cc2ccc3c(c2)OCO3)C[C@@H](CO)O1 in the list: 0.5%, 7.2, 14.2, -0.1, 5.4, 2.1
